# HIV Env fusion – blocks HIV Env-driven cell-cell fusion; HeLa-JRFL Env/CEM21 cell fusion, luciferase; inhibition, % at 12.3 µM; 1.1% of 360,000 active;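 active = mean replicate inhibition score of at least 50 and every replicate individually at or above 50; inconclusive = only one of the two criteria met; inactive = mean below 50 and not all replicates reaching 50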;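 also: 0% = plate neutral controls and 100% = maraviroc near 300 nM; one replicate is shown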
# * = called active by the depositor; ? = inconclusive; [ ] = dose if it differs, or a comment. Not all compounds are listed; rates above refer to the full screens.
SMILES,HIV Env fusion
CNC[C@H]1OCCCC[C@@H](C)Oc2ccc(NC(=O)c3ccccc3)cc2C(=O)N([C@@H](C)CO)C[C@@H]1C,6.1[16.7 µM]
C[C@@H]1CN([C@H](C)CO)C(=O)c2cc(NS(=O)(=O)c3ccccc3)ccc2O[C@@H]1CN(C)C,-3.6[16.7 µM]
CCCCCCCCN1C(=O)[C@@H](CC(=O)NCc2ccc(OC)c(OC)c2)C[C@@]2(C(=O)OC)C1=C[C@H](C1CCCC1)O[C@@H]2C,-18.3
C[C@H]1CN([C@@H](C)CO)C(=O)Cc2cc(NC(=O)Cc3cn(C)c4ccccc34)ccc2O[C@H]1CN(C)S(=O)(=O)c1ccc(Cl)cc1,6.1[16.7 µM]
COc1ccccc1CNC(=O)C[C@H]1C[C@H]2c3cc(NC(=O)c4cccnc4)ccc3O[C@H]2[C@H](CO)O1,10.9[16.7 µM]
C[C@@H]1CN([C@@H](C)CO)C(=O)c2cc(NS(=O)(=O)c3ccccc3)ccc2O[C@H]1CN(C)S(=O)(=O)c1ccc(Cl)cc1,-11.4[16.7 µM]
COc1ccc(NC(=O)Nc2ccc3c(c2)[C@@H]2C[C@@H](CC(=O)NCCc4ccccc4)O[C@H](CO)[C@@H]2O3)cc1,15.3[16.7 µM]
COc1ccc(S(=O)(=O)N(C)C[C@@H]2Oc3ccc(NS(=O)(=O)c4ccc(F)cc4)cc3CC(=O)N([C@@H](C)CO)C[C@H]2C)cc1,-13.1[16.7 µM]
COc1ccc2c3c(n(C)c2c1)[C@H](CO)N(C(=O)CC1CC1)CC31CCN(C(=O)CC2CC2)CC1,-2.1[16.7 µM]
CC(CNC(=O)[C@H]1O[C@@H](n2cnc3c(=O)[nH]c(N)nc32)[C@H](O)[C@@H]1O)c1ccccc1 (some centres not stated),2.6
CCC(=O)Nc1ccc2c(c1)OC[C@H](C)N(C(=O)COC)C[C@@H](C)[C@H](OC)CN(C)C2=O,17.7[16.7 µM]
CO[C@H]1CC[C@H]2CCN(C)C(=O)[C@H](C)CN(C)C(=O)c3cc(C#N)ccc3OC[C@H]1O2,-18.1[16.7 µM]
COC(=O)C1=C(C)N(C)C(=NCC2CC2)NC1c1cccc(F)c1 (configuration not stated),-4.8
CNC[C@@H]1Oc2ccc(NS(=O)(=O)c3ccccc3)cc2CC(=O)N([C@H](C)CO)C[C@H]1C,10.2[16.7 µM]
CO[C@@H]1CN(C)C(=O)c2cc(NC(=O)C3CC3)ccc2OC[C@H](C)N(C(=O)C2CCOCC2)C[C@@H]1C,-10.8[16.7 µM]
COC(=O)C1=C(C)N(Cc2ccccc2C(F)(F)F)C(=NCC2CC2)NC1CCc1ccccc1 (configuration not stated),12.3
CCCN(C)C[C@@H]1OCCCC[C@@H](C)Oc2ccc(NC(=O)Nc3c(C)noc3C)cc2C(=O)N([C@H](C)CO)C[C@@H]1C,1.0[16.7 µM]
CO[C@H]1CC[C@H]2CCN(C)C(=O)[C@H](C)N(C)C(=O)c3cc(C#N)ccc3OC[C@H]1O2,7.6[16.7 µM]
COC(=O)[C@]12C[C@H](CC(=O)N3CCC(c4ccccc4)CC3)C(=O)N(CCc3ccc(OC)c(OC)c3)C1=C[C@H](C(C)(C)C)O[C@@H]2C,-48.7
C[C@@H]1CN([C@@H](C)CO)C(=O)Cc2cc(NS(=O)(=O)c3ccc(Cl)cc3)ccc2O[C@H]1CN(C)C(=O)Nc1ccc2c(c1)OCO2,-33.7[16.7 µM]
CO[C@@H]1CN(C)C(=O)c2cc(NC(=O)Nc3ccccc3F)ccc2OC[C@@H](C)N(C(=O)c2cnccn2)C[C@H]1C,7.4[16.7 µM]
CN(C)CC(=O)Nc1ccc2c(c1)[C@H]1C[C@H](CC(=O)NCc3cc(F)ccc3F)O[C@@H](CO)[C@H]1O2,-4.9[16.7 µM]
CCCNC(=O)Nc1ccc2c(c1)C(=O)N(C)C[C@@H](OC)[C@H](C)CN(C(=O)CC)[C@@H](C)CO2,6.5[16.7 µM]
C[C@@H]1CN([C@H](C)CO)C(=O)c2cc(C#CC3(O)CCCC3)cnc2O[C@@H]1CN(C)C(=O)Cc1cccnc1,-33.2[16.7 µM]
CCOC(=O)[C@@H]1CSCCS(=O)(=O)N1C(=O)[C@H](C)NC(=O)OC(C)(C)C,-84.4
O=C(C[C@@H]1CC[C@@H]2[C@H](COC[C@@H](O)CN2Cc2cc(F)ccc2F)O1)N[C@@H]1CCN(Cc2ccccc2)C1,-10.0[16.7 µM]
C[C@H](CO)N1C[C@H](C)[C@H](CN(C)Cc2ccccc2)OCc2cn(nn2)CCCC1=O,-11.2[16.7 µM]
CCCCc1c(-c2ccccc2OC)ncn1Cc1cccc(F)c1,9.0
C[C@@H]1ON(C)[C@H]2C[C@H]3c4cc(-c5cccc(Cl)c5)ccc4CCN3C[C@@H]12,14.1
COC(=O)[C@]1(Cc2ccccc2)N=C(c2ccc(OCCCO)cc2)O[C@@H]1c1ccccc1,31.4[16.7 µM]
CN(C)c1ccc2c(c1)[C@@H]1C[C@@H](CC(=O)NCc3cccc(F)c3)O[C@H](CO)[C@@H]1O2,-17.7[16.7 µM]
Cc1ccccc1S(=O)(=O)N1CCCc2nc(-c3ccc(Br)cc3)ccc21,?
O=C(c1cccc(F)c1)N1CC2(C1)[C@@H](c1ccccc1)[C@H](CO)N2C(=O)C1CCC1,-6.7[16.7 µM]
COc1ccc(N2C[C@@]3(O)CC[C@@H](O)[C@@H](OC)[C@@H]3[C@@]2(C)[C@H](O)CC=C(C)C)cc1,-131.3
Brc1ccc2nc(-c3ccc(CN4CCC(c5nc6ccccc6[nH]5)CC4)cc3)c(-c3ccccc3)nc2c1,21.9
COC(=O)[C@]12C[C@H](CC(=O)NCC34CC5CC(CC(C5)C3)C4)C(=O)N(Cc3ccccc3)C1=C[C@H](C(C)C)O[C@@H]2C1CC1,-36.6
CO[C@@H]1CN(C)C(=O)c2ccc(NC(=O)Nc3cccc(F)c3)cc2OC[C@@H](C)NC[C@@H]1C,-4.6[16.7 µM]
CO[C@H]1CC[C@@H]2CCOc3c(C#N)cccc3C(=O)N(C)CC3(CCCCC3)CC(=O)N(C)C[C@H]1O2,-12.6[16.7 µM]
C[C@@H]1ON(C)[C@H]2C[C@H]3c4[nH]c5c(-c6cc(Cl)cc(Cl)c6)cccc5c4CCN3C(=O)[C@@H]12,5.1
CCCNC(=O)Nc1ccc2c(c1)OC[C@H](C)N(CCC(F)(F)F)C[C@H](C)[C@H](OC)CN(C)C2=O,-54.4[16.7 µM]
CCCCS(=O)(=O)N1CCCc2nc(-c3ccccc3)ccc21,-34.4
Cc1noc(C)c1S(=O)(=O)Nc1ccc2c(c1)C(=O)N([C@H](C)CO)C[C@H](C)[C@@H](CN(C)Cc1ccc(C(F)(F)F)cc1)OCCCC[C@@H](C)O2,22.8[16.7 µM]
CC(=O)OCC(=O)NCC1CCN(C(=O)C(=O)c2cc3ccccc3o2)CC1,8.5
C[C@H](NC(=O)C[C@@H]1C[C@@H]2c3cc(NS(=O)(=O)c4ccc(F)cc4)ccc3O[C@@H]2[C@H](CO)O1)c1ccccc1,-10.5[16.7 µM]
O=C(C[C@@H]1C[C@H]2c3cc(NC(=O)Nc4ccc(C(F)(F)F)cc4)ccc3O[C@H]2[C@@H](CO)O1)NCc1cc(F)ccc1F,-16.4[16.7 µM]
COc1ccccc1CNC(=O)C[C@H]1C[C@@H]2c3cc(NC(=O)c4ccc5c(c4)OCO5)ccc3O[C@@H]2[C@H](CO)O1,4.1[16.7 µM]
CCCN(C)C[C@H]1OCCCC[C@H](C)Oc2ccc(NC(=O)CCC(F)(F)F)cc2C(=O)N([C@@H](C)CO)C[C@H]1C,-20.8[16.7 µM]
C[C@@H]1CN([C@@H](C)CO)C(=O)c2ccccc2-c2ccccc2CO[C@H]1CN(C)C(=O)c1ccncc1,-10.4[16.7 µM]
COc1cccc(CNC(=O)[C@H]2CCCN2C(=O)[C@H]2CCCN2C(=O)N2CCCCC2)c1,5.1
CC1=C[C@@H]2[C@H]3C(=O)N(Cc4ccccc4)C(=O)[C@H]3[C@@H]1[C@@H]1O[C@@]3(C(=O)N(C)c4ccccc43)C3=C(CCCC3=O)N21,-19.6
O=C(C[C@@H]1CC[C@H]2[C@@H](COC[C@H](O)CN2Cc2ccccc2F)O1)NC1CCC1,1.4[16.7 µM]
CN1C(=O)c2cc(NC(=O)Cc3cccs3)ccc2OC[C@H]2O[C@@H](CC(=O)NCCCN3CCOCC3)CC[C@@H]21,3.8[16.7 µM]
CN(C)CC(=O)Nc1ccc2c(c1)[C@@H]1C[C@H](CC(=O)NC3CCCCC3)O[C@H](CO)[C@@H]1O2,-1.9[16.7 µM]
CC=Cc1ccc2n(c1=O)C[C@@H]1N[C@H]2[C@H](C(=O)NCc2ccc3c(c2)OCO3)[C@H]1CO (mixture of isomers),-0.9[16.7 µM]
CCOC(=O)C1=C(C(=O)OCC)C2N(Cc3ccc(Br)cc3)c3ccccc3[C@@]23C[C@@H](C(=O)OC)N(S(=O)(=O)c2ccc(OC)cc2)C3=N1 (some centres not stated),?
CO[C@@H]1CC[C@H]2CCN(C)C(=O)[C@@H](C)CN(C)C(=O)c3cc(C#N)ccc3OC[C@@H]1O2,3.6[16.7 µM]
COc1cccc(CNC(=O)C[C@H]2CC[C@H](NC(C)=O)[C@H](CO)O2)c1,17.8[16.7 µM]
COC(=O)[C@]1(CC(C)C)NC=C(C(=O)c2ccccc2)[C@@H]1c1cccc(C(F)(F)F)c1,0.1
O=C(C[C@@H]1CC[C@H]2[C@@H](COC[C@H](O)CN2C(=O)c2ccc3c(c2)OCO3)O1)NCCN1CCCCC1,9.8[16.7 µM]
C[C@H](CO)N1C[C@H](C)[C@@H](CN(C)C(=O)C2CC2)OCc2ccccc2-c2ccccc2C1=O,-5.4[16.7 µM]

# (cont.)
SMILES,HIV Env fusion
C[C@H]1CN([C@@H](C)CO)C(=O)c2c(c3ccccc3n2C)-c2ccccc2CO[C@H]1CN(C)C(=O)[C@@H](Cc1ccccc1)N(C)C,?
CNC[C@@H]1Oc2cc(-c3ccccc3F)ccc2S(=O)(=O)N([C@@H](C)CO)C[C@@H]1C,-15.3[16.7 µM]
CC(C)NC(=O)Nc1ccc2c(c1)C(=O)N([C@H](C)CO)C[C@H](C)[C@@H](CN(C)C)OCCCC[C@@H](C)O2,17.6[16.7 µM]
C[C@@H]1CN([C@H](C)CO)C(=O)CCCn2nncc2CO[C@@H]1CN(C)Cc1ccccc1C(F)(F)F,7.9[16.7 µM]
C[C@H]1CN([C@@H](C)CO)C(=O)c2cc(C3=CCCC3)cnc2O[C@@H]1CN(C)C(=O)c1ccc2c(c1)OCO2,-11.9[16.7 µM]
COCC(=O)Nc1ccc2c(c1)[C@@H]1C[C@H](CC(=O)N[C@@H](C)c3ccccc3)O[C@@H](CO)[C@@H]1O2,-2.6[16.7 µM]
CC(C)NC(=O)N(C)C[C@@H]1OCCCC[C@@H](C)Oc2ccc(NC(=O)Nc3ccccc3)cc2C(=O)N([C@@H](C)CO)C[C@H]1C,8.1[16.7 µM]
COc1cccc(S(=O)(=O)N(C)C[C@@H]2OCc3ccccc3-c3c(n(C)c4ccccc34)C(=O)N([C@H](C)CO)C[C@H]2C)c1,-12.7[16.7 µM]
CC(C)CC1NC(=O)c2ccccc2-n2c1nc1ccccc1c2=O (configuration not stated),-10.6
O=C(Nc1ccc2c(c1)[C@H]1C[C@@H](CC(=O)N3CCc4ccccc4C3)O[C@@H](CO)[C@H]1O2)c1ccc2c(c1)OCO2,-9.1[16.7 µM]
S=C(SCc1c(Cl)cccc1Cl)N1CCSCC1,35.1
C[C@H](O)[C@@H]1CN2CCc3c([nH]c4c(-c5ccccc5)cccc34)[C@@H]2C[C@@H]1N(C)C(=O)NC1CCCCC1,11.4
Cc1cc(C(=O)Nc2ccc3c(c2)C(=O)N(C)[C@H]2CC[C@@H](CC(=O)NCc4ccc(-c5ccccc5)cc4)O[C@H]2CO3)no1,4.3[16.7 µM]
CC(C)NC(=O)N(C)C[C@@H]1OCCCC[C@@H](C)Oc2ccc(NC(=O)CCCN(C)C)cc2C(=O)N([C@@H](C)CO)C[C@H]1C,-10.3[16.7 µM]
CCCNC(=O)C[C@H]1C[C@H]2c3cc(NC(=O)COC)ccc3O[C@H]2[C@@H](CO)O1,14.1[16.7 µM]
O=C(NCc1ccco1)Nc1c(Cl)cc(Cl)cc1Cl,16.2
O=C(NCCc1ccccc1Cl)[C@@H]1CCCN1C(=O)[C@@H](NC(=O)N1CCOCC1)C1CCCCC1,20.8
COc1ccc(CN2C[C@H](C)[C@@H](OC)CN(C)C(=O)c3ccc(NC(C)=O)cc3OC[C@@H]2C)cc1,-3.9[16.7 µM]
COc1ccc(S(=O)(=O)N[C@@H]2CC[C@@H](CCNC(=O)Cc3ccccn3)O[C@@H]2CO)cc1,-8.0[16.7 µM]
